T cruzi repl: inhibitors of intracellular T. cruzi growth, primary screen, luminescence, NIH3T3 host cells; T. cruzi beta-gal in NIH3T3, 90 h; inhibition, % (test concentration not listed); hit rate 1.4% among 300,000; AID 1885, 2009;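 active means mean inhibition across valid replicates above about 55%, limit read from the data; inconclusive means mean below that limit but half or more replicates reach it; inactive means mean below it, under half of replicates reach it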;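 further: signal also drops with host cell toxicity which is not excluded here; 0% = plate median of DMSO wells and 100% = zero luminescence signal; higher percent means less beta-gal luminescence so fewer parasites; stock transfer was 50 nL into about 50 µL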
Beta cell apopt: inhibitors of cytokine-induced beta cell apoptosis, primary screen, luminescence | INS-1E cytokine-induced death, ATP luminescence, 48 h; percent of positive-control rescue, neutral wells zero | AID 435005, 2010 | hit rate 0.8% among 300,000 | protection from apoptosis, % (no concentration beside the values);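 active means all replicates at 75% or more, or half of them and the mean; inconclusive means half reach 75% but not the mean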;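 further: 0% = cytokine-treated negative control wells and 100% = positive control rescue; higher means more ATP so stronger rescue from cytokine killing; wells of about 40 µL received 100 nL stock; the first replicate is given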
AF4-AF9 inh: inhibitors of AF4 peptide binding to AF9, primary screen, biochemical, AlphaScreen, biotin-AF4 peptide, FLAG-AF9, single point. Protein AF-9 (Homo sapiens), P42568. inhibition, % at 10 µM. hit rate 0.47% among 350,000. AID 651704, 2012;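 active means every replicate reaching a set inhibition limit, whatever the replicate mean, cut at about 25% in these data; inconclusive means mean inhibition reaches that limit but some replicates miss it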;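 further: 0% = plate neutral control median and 100% = total signal loss; the record names both 10 and 1 µM as test concentration; the first replicate is given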
Target sequence (P42568 whole entry, looked up): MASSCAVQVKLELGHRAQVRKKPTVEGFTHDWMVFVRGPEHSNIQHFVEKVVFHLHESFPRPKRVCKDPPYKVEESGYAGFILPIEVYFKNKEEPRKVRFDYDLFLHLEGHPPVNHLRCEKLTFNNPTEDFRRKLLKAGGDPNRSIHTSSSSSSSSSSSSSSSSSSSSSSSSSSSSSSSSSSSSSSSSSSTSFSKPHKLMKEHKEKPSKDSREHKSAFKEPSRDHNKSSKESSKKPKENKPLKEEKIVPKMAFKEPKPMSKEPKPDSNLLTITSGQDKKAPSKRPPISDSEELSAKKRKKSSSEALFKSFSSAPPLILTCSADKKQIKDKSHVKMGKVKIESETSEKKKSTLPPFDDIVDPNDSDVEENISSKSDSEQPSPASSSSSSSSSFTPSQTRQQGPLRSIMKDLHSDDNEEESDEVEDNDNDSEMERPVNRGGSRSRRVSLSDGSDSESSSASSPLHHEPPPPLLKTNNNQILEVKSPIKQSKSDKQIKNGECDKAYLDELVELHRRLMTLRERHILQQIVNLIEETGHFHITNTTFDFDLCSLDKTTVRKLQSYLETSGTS
A1 inh: caspase 3/7 activation in MEF A1-2A-BIM cells, primary screen, A1 inhibitor project, cell-based, luminescence, HTS; Caspase-Glo 3/7 luminescence, 3 h; percent of clofoctol response, vehicle zero; caspase activation, % (no concentration beside the values); hit rate 0.066% among 330,000; AID 2462, 2010;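 active means over half of replicate activation scores above 10%, or exactly half above 10 with the replicate mean above 10; inconclusive means replicate mean below 10 yet half the replicates above 10; inactive means over half of replicates below 10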;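 further: wells of about 30 µL received 50 nL stock; many hits fall short of the cut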
Calb FLC: C. albicans growth inhibition with fluconazole, primary screen, CaCi-2 strain, Alamar Blue fluorescence; C. albicans CaCi-2 (fluconazole-resistant clinical isolate) + fluconazole, 48 h; hit rate 0.57% among 300,000; growth inhibition, % (no concentration beside the values);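 active means most replicates above 75%; inconclusive means exactly half above 75%; inactive means most below 75%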;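 further: all wells also contain fluconazole at 8 µg/ml as a sub-toxic cotreatment; 0% = median of DMSO wells and 100% = median of geldanamycin control wells; wells of about 8 µL received 7.5 nL stock; the first replicate is given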
RanGTP-Imp inh: inhibitors of RanGTP-importin-beta interaction, primary screen, biochemical, FRET, CFP-Ran, YFP-importin-beta, homogeneous | Ran GTPase (GTP-bound) - importin-beta complex | cell-free CFP-Ran/YFP-importin-beta FRET ratio | inhibition, % (test concentration not listed) | hit rate 1.1% among 300,000 | AID 2216, 2009;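 active means most replicates above 15%; inconclusive means exactly half above 15%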;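 further: 0% = DMSO wells and 100% = Ran loaded with GDP instead of GTP; wells of about 40 µL received 100 nL stock; the first replicate is given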
rRNA inh HTS: reduced GFP signal of wild-type E. coli, primary screen, bacterial rRNA inhibitor project, GFP/RFP fluorescence, OD600, single point. E. coli WT GFP vs humanized-ribosome RFP mutants, 24 h; stronger effect = lower value; DMSO median 0, no signal -100. GFP signal change (wild-type ribosome), % (concentration not given with the values). hit rate 1.6% among 350,000;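 active means significant combined selectivity score with lowered wild-type GFP, culture density cut under 30%, mutant RFP and density less affected; inactive means any of these conditions unmet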; further: one replicate is shown; some compounds called inactive have numbers as strong as hits
Vif A3G: inhibitors of Vif binding to APOBEC3G peptide, primary screen, biochemical, TR-FRET, GST-Vif 1-94, biotin-A3G peptide, dose response retest (AID 1117319). TR-FRET GST-Vif / biotin-A3G peptide binding; higher % means a stronger effect; test concentration not given here; strong numbers were not always called active. Virion infectivity factor (Human immunodeficiency virus type 1 group M subtype B (isolate …. hit rate 0.57% among 260,000. inhibition, %; hits with a dose series show IC50 in µM;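 active means above the screen mean plus three standard deviations and confirmed in dose response; inconclusive means results disagree or hit not tested in dose response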;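 further: Vif residues 1-94 fused to GST binding biotinylated APOBEC3G peptide 110-148; 0% = full assay without inhibitor and 100% = GST in place of GST-Vif; retest series ran down from 100 µM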
rRNA inh HTS OD600: recorded beside rRNA inh HTS, whose call it bears; OD600 change, %; measured here: OD600 growth;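 optical density of the mix in the first replicate; 0 = DMSO median and -100 = no signal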
rRNA inh HTS RFP: further read-out of rRNA inh HTS, marked with its call; RFP signal change, %; measured here: RFP humanized mutant strains;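 first replicate; 0 = DMSO median and -100 = no signal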
The depositor's hits bear a star; ? = inconclusive; . = not tested or not shown.

Values run as follows: rRNA inh HTS RFP | RanGTP-Imp inh | rRNA inh HTS OD600 | AF4-AF9 inh | Calb FLC | rRNA inh HTS | Beta cell apopt | T cruzi repl | Vif A3G | A1 inh
1: Cc1ccccc1Nc1nc(N)nc(CSc2nnc3ccccn23)n1
  0.8 | -0.4 | 12 | 4.9 | -3 | 8 | -7 | -7 | 24% | -0.4
2: CCCn1c(SCC(=O)NCC)nc2sc3c(c2c1=O)CCC3
  1.8 | -0.8 | 1 | -0.2 | 5 | 2 | 4 | 8 | . | 0.0
3: O=C(NC1CCCC1)C(c1ccsc1)N(Cc1ccco1)C(=O)Cc1cccs1 (stereo not given)
  . | -0.2 | . | . | -38 | . | -5 | 0 | -1% | 0.2
4: O=C(CSc1nnc(-c2cccnc2)s1)Nc1ccccc1
  -0.6 | -2.4 | 13 | -1.3 | 12 | 3 | -1 | 1 | -10% | -0.1
5: O=C(NNC(=O)c1csc(-c2cccnc2)n1)Nc1ccc(Cl)cc1
  1.3 | 2.8 | 5 | . | -4 | 1 | -34 | 1 | -9% | 0.5
6: CC(C)N1CCC(N2CCN(Cc3cccc4nonc34)CC2CCO)CC1 (stereo not given)
  5.5 | 0.5 | 8 | 1.8 | -3 | 18 | -10 | -10 | 3% | 0.7
7: COc1ccccc1C(=O)NNC(=O)CCN1C(=O)/C(=C\c2ccccc2)SC1=S
  -0.8 | 1.6 | 6 | 0.8 | 11 | 6 | -9 | 10 | . | 1.2
8: O=[N+]([O-])c1ccc(S(=O)(=O)CC2CSc3nc4ccccc4n32)cc1 (stereo not given)
  . | -2.0 | . | . | 3 | . | 3 | 37 | . | -1.9
9: COc1cc(C(=O)N2CCCCCCC2)ccc1OC1CCN(C(C)=O)CC1
  0.8 | 2.9 | 10 | -0.5 | -14 | 6 | 5 | 0 | . | 0.4
10: COc1ccc(/C(C)=N/NC(=O)CNC(=O)c2cccs2)cc1OC
  4.4 | 1.7 | 15 | 3.6 | 5 | 9 | -3 | -21 | 9% | 0.7
11: COc1ccc(Cl)cc1NC(=O)CSc1nc(N2CCOCC2)nc(N2CCOCC2)n1
  3.8 | ? | 2 | 0.6 | -2 | 11 | 1 | -4 | 0% | 0.7
12: FC(F)Oc1ccccc1NC(=S)Nc1cccc(Cl)c1Cl
  . | 4.2 | . | . | -4 | . | -4 | 0 | . | 0.2
13: Cc1ccc(C)c(-n2cc(CN3CCN(C(=O)c4ncn[nH]4)CC3)c(-c3ccccc3)n2)c1
  -1.0 | 0.6 | -7 | 5.5 | 27 | -4 | -6 | -7 | -7% | 0.8
14: CC(C)CC(=O)N1CCN(Cc2ccc(Br)cc2)CC1
  -1.7 | -0.5 | -2 | 0.0 | 4 | -4 | 13 | -5 | . | -6.2
15: COc1cc(NC(=S)NC(=O)CC(C)C)ccc1NC(=O)c1cc2ccccc2o1
  2.8 | 3.3 | 6 | -30 | 6 | 7 | 8 | -7 | 7% | 1.1
16: Nc1ccc2c(c1)ncn2CCCn1cnc2cc(N)ccc21
  4.3 | 2.3 | 8 | 13 | 8 | 0 | . | -5 | 16% | 0.9
17: COc1ccc(/C=C2\CCCC3C2=NN(C(=O)c2ccco2)C3c2ccc(OC)c(OC)c2)cc1OC (stereo not given)
  . | 3.7 | . | . | 0 | . | 1 | 10 | 18% | -0.1
18: CC(=O)c1c(O)cc(=O)n(-c2ccccc2)c1-c1ccc(C)cc1
  . | -2.6 | . | . | 0 | . | -3 | -1 | 2% | 0.5
19: O=C(COC(=O)C12CC3CC(CC(C3)C1)C2)NCCCc1ccccc1
  . | -0.8 | . | . | -37 | . | -7 | -2 | 5% | 0.4
20: CC1=C(C(=O)OCC2CCCCC2)C(c2cccc(O)c2)NC(=O)N1 (stereo not given)
  . | -5.3 | . | . | 6 | . | 1 | 3 | . | -0.4
21: CCOC(=O)CSc1nc2ccccc2c(=O)[nH]1
  -2.4 | ? | 8 | 5.0 | 0 | 8 | 0 | -3 | 4% | 0.0
22: CCOC(=O)C(C)NC(=O)c1cn(-c2ccc(OC)cc2)c(=O)c2ccccc12 (stereo not given)
  -5.5 | 5.7 | 17 | -4.4 | -3 | 8 | -5 | -3 | 0% | -0.5
23: COc1ccc(Br)cc1CN1CCN(c2ncccn2)CC1
  1.1 | -0.4 | -2 | -0.4 | -16 | 0 | -1 | 9 | . | -0.4
24: CC1(C)OC(=O)C(=NNc2ccc(Br)cc2)C(=O)O1
  . | -0.3 | . | . | 10 | . | 2 | -12 | 15% | -0.1
25: CCOC(=O)C1CCN(C(=O)c2oc3ccc(S(=O)(=O)N4CC(C)CC(C)C4)cc3c2C)CC1 (stereo not given)
  . | -0.5 | . | . | 6 | . | -3 | 42 | -4% | 0.1
26: COc1cc(NC(=O)c2c(OC)cccc2OC)ccc1NC(=O)c1cc2ccccc2o1
  8.7 | 1.8 | 2 | 1.6 | 13 | -5 | 2 | 11 | . | -0.3
27: O=C1CCCc2nn(-c3ccccc3)nc21
  . | 2.0 | . | . | -6 | . | . | -2 | -4% | -0.1
28: COC(=O)C1(CC2CC(c3ccc(Cl)cc3)=NO2)CCN(C(=O)OC(C)(C)C)CC1 (stereo not given)
  . | 3.7 | . | -6.6 | 8 | . | 3 | 9 | . | 0.8
29: CCNc1ccc(S(=O)(=O)N(C)C)cc1NCC(=O)Nc1ccccc1Cl
  -2.1 | . | -32 | 0.6 | -22 | -24 | 2 | -5 | -1% | -0.3
30: O=C1CCCN1CCCNc1ncnc2c1[nH]c1ccccc12
  . | -1.0 | . | . | 1 | . | 1 | -16 | -2% | -0.5
31: COCCCNC(=O)CNC(=O)c1nn(-c2ccc(OC)c(Cl)c2)c(=O)c2ccccc12
  -5.2 | 2.1 | 0 | 0.2 | 1 | 2 | -2 | 4 | -8% | -0.3
32: Cc1cnc(NC(=O)CCCSc2nc3ccccc3s2)s1
  . | 5.8 | . | . | -9 | . | -2 | 1 | -10% | -0.5
33: COc1ccc(NC(=O)c2cccnc2Nc2ccccc2)cc1
  . | 0.7 | . | . | 4 | . | -5 | 2 | -5% | 0.4
34: CCCC1(C(=O)OC)NC(c2ccco2)C2C(=O)N(C)C(=O)C21 (stereo not given)
  -6.6 | -1.6 | 6 | 0.5 | -1 | 12 | -3 | -12 | . | 0.3
35: c1ccc(-c2cc3c(NCC4COc5ccccc5O4)ncnc3s2)cc1 (stereo not given)
  18 | -0.5 | -29 | -7.2 | 9 | -20 | 9 | 9 | -3% | ?
36: O=C(Nc1ccc(-n2ccnc2P(=O)(O)c2ccccc2)cc1)c1ccccc1Br
  . | 0.1 | . | . | 4 | . | -2 | 0 | 25% | 1.3
37: CCCn1c(CCNC(=O)c2ccco2)nc2ccccc21
  -0.8 | 2.6 | 4 | -0.2 | -1 | 0 | -1 | -6 | . | 0.2
38: CC1=C(C(=O)OCc2ccccc2)C(c2ccc(Cl)cc2)NC(=O)N1C (stereo not given)
  . | 0.9 | . | -0.3 | -37 | . | 10 | 2 | . | 0.5
39: O=C(CSc1nnc(-c2ccncc2)n1CC1CCCO1)Nc1ccccc1Cl (stereo not given)
  . | 3.9 | . | -2.4 | 1 | . | -5 | -13 | -4% | 0.6
40: CCSc1nnc(-c2cnn(-c3ccccc3)c2-n2cccc2)n1C
  . | 5.2 | . | . | 5 | . | -6 | -6 | 30% | 1.0
41: CCCCN(CCCC)c1nc2ccccc2nc1NS(=O)(=O)c1ccc(NC(C)=O)cc1
  . | 3.1 | . | . | -5 | . | 2 | 4 | -12% | 0.4
42: CCOC(=O)C1(Cc2ccc(OC)cc2)CCN(C(=O)C2CCCO2)CC1 (stereo not given)
  -1.8 | 1.3 | 0 | 0.2 | -5 | 4 | -6 | -11 | -7% | 0.8
43: COc1ccc(CN/C=C2\CCCCC2=O)cc1
  1.7 | ? | -5 | 5.5 | -18 | 4 | 3 | 11 | 8% | 0.4
44: CC12CCC(C(=O)NCc3ccccn3)(OC1=O)C2(C)C (stereo not given)
  . | -3.1 | . | -0.5 | -1 | . | -8 | -11 | 3% | -0.4
45: O=C(CCS(=O)(=O)Cc1ccccc1)N1CCN(Cc2ccccc2)CC1
  -5.0 | -3.6 | 6 | 4.3 | 0 | 3 | 1 | 1 | -3% | 0.1
46: Cn1c(=O)c2c(nc(N3CCOCC3)n2Cc2c(F)cccc2Cl)n(C)c1=O
  . | 1.5 | . | . | 2 | . | . | -7 | 22% | -0.7
47: N/C(=N\OC(=O)C12CC3CC(CC(C3)C1)C2)c1ccncc1
  -1.2 | 1.6 | -4 | -3.0 | -35 | 1 | . | 6 | -1% | 0.0
48: O=C(Nc1ccc(F)c(F)c1)C1CCN(S(=O)(=O)c2cccc3nonc23)CC1
  0.3 | 3.7 | 8 | -2.9 | 0 | 2 | 11 | -7 | . | 0.6
49: CC(=O)c1cccc(NC(=O)CC2SC(N3CCCCC3)=NC2=O)c1 (stereo not given)
  . | -2.2 | . | . | 6 | . | 1 | -1 | 3% | -0.3
50: Cc1ccc(Cl)c(OC(=O)C2CSC3(C)CCC(=O)N23)c1 (stereo not given)
  -0.2 | 1.0 | 4 | 0.9 | -4 | 9 | . | -3 | -2% | 0.1
51: COCc1c(C(=O)OCC(=O)N2CCCC2=O)oc2ccccc12
  -1.2 | . | 3 | -2.1 | . | 0 | -1 | . | -7% | 2.1
52: O=C(Cc1ccc(Cl)cc1)Nc1ccc2c(c1)C(=O)NC2=O
  -2.0 | -1.6 | 6 | 0.5 | 5 | 6 | 119* | -7 | 10% | -10
53: Nc1n[nH]c(-c2ccccc2[N+](=O)[O-])n1
  -4.3 | 5.2 | 5 | 0.0 | 13 | 8 | . | -16 | . | 0.7
54: Cc1ccc2oc(-c3ccco3)nc2c1
  . | 6.1 | . | . | 3 | . | 1 | -5 | 0% | -5.5
55: Cc1nccc(-c2cc(-c3ccc(Cl)cc3Cl)no2)n1
  . | -0.5 | . | 2.1 | -2 | . | . | 8 | 0% | -10
56: CCOC(=O)N1C(=O)[C@](c2ccc(Cl)cc2)(C(C)C)N1C(=O)OCC
  0.4 | 4.0 | -5 | -2.8 | -15 | 3 | 11 | -25 | . | 0.6
57: Cn1c(N=Nc2ccc(N3CCOCC3)cc2)[n+](C)c2ccccc21
  -3.6 | 0.5 | -1 | 58* | 6 | 10 | . | 36 | 27% | .
58: Cc1cc(C)c(NC(=O)CSc2ccc3nnc(CCNC(=O)c4ccccc4)n3n2)c(C)c1
  0.6 | -1.0 | -1 | 2.3 | 10 | 4 | -4 | 2 | . | 0.5

The list is partial, so the mix of outcomes need not match the whole.
